Compound activity from PubChem.
D2 agonist = human D2 receptor agonism in beta-arrestin assay; DiscoveRx PathHunter D2 beta-arrestin, luminescence, 90 min; 100% = 57 uM dopamine signal; activation, % (test concentration not listed); 360,000 compounds, 0.084% hits; in the data active = activation above about 40%; inconclusive = about 15% to 40%; inactive = below about 15%; also: compound concentration not given in the record; the text of the record calls up to 30% inactive
Target sequence (P14416 whole entry, looked up): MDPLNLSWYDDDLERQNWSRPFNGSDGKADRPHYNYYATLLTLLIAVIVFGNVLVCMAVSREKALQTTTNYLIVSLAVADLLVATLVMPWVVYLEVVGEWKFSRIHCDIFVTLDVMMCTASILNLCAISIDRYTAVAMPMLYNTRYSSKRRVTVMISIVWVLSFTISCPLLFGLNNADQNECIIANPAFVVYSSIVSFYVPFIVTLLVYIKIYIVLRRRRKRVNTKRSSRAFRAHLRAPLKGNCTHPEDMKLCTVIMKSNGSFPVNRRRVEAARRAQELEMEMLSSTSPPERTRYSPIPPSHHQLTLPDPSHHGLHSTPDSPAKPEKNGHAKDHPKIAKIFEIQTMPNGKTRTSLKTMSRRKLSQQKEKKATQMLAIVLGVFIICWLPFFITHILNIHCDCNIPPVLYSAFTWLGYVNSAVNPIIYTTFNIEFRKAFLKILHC
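DiscoveRx PathHunter D2 beta-arrestin cells (2,100/well) attached overnight, then compound-stimulated 90 min at 37 C in HBSS/10 mM HEPES/0.1% Tween-20 buffer; beta-galactosidase complementation read by luminescence after 1 h at ambient temperature. Dopamine 57 uM final (EC100) as control.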
Six1-Eya2 inh = inhibitors of human Six1/Eya2 interaction; Q15475+O00167; AlphaScreen GST-Six1/His-Eya2 binding, biochemical; stronger effect = lower value; control for the full effect not named in the record; activity change, % (concentration not given with the values); 360,000 compounds, 0.56% hits; in the data active = activity change below about -65%; inconclusive = about -30% to -65%; inactive = above about -30%; also: % is scaled to controls: 0 for no effect and ±100 for the full control effect
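AlphaScreen with GST-Six1 and His-Eya2 (5X mix: 250 nM and 500 nM), glutathione donor and nickel acceptor beads; buffer 50 mM Tris pH 8.0, 300 mM NaCl, 1 mM TCEP; 1 h at 37 C in the dark.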
PINK1 modulator = changes PINK1 expression; Potency, µM (series often up to 76.6 µM), without a hit: at the highest dose activation (PINK1 increase), hits mostly activators; 410,000 compounds, 0.2% hits; PINK1 immunofluorescence, high-content cytometry, 24 h; active = well fitted activation curve with a large enough effect; inconclusive = small, poorly fitted or top-dose-only effect; inactive = flat fitted curve, though single readings scatter; cell line not stated here;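 also: potency is read from the fitted curve at half-maximal effect; % of control where 0% means no effect; nearly all actives have a fitted effect of over 65% in size; a mitochondrial uncoupler was the plate control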
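Compound titrations (5 concentrations, 24 h) on a stable cell line; DMSO and CCCP controls. Endpoint: fixed-cell PINK1 immunofluorescence with mitochondrial, cell and nuclear markers, scanned by microplate cytometer.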
TRPML1 ag = human mucolipin-1 channel agonism | activation, % (no concentration beside the values) | 410,000 compounds, 0.12% hits | TRPML1-expressing cells, Ca2+ dye fluorescence, FDSS; host cell line not named in the record; reference of the full effect not given here | AID 624414 | Q9GZU1; in the data active = activation above about 50%; inconclusive = about 30% to 50%; inactive = below about 30%; also: 0% is about no effect; the text of the record puts the active cut at 80%
Target sequence (Q9GZU1 whole entry, looked up): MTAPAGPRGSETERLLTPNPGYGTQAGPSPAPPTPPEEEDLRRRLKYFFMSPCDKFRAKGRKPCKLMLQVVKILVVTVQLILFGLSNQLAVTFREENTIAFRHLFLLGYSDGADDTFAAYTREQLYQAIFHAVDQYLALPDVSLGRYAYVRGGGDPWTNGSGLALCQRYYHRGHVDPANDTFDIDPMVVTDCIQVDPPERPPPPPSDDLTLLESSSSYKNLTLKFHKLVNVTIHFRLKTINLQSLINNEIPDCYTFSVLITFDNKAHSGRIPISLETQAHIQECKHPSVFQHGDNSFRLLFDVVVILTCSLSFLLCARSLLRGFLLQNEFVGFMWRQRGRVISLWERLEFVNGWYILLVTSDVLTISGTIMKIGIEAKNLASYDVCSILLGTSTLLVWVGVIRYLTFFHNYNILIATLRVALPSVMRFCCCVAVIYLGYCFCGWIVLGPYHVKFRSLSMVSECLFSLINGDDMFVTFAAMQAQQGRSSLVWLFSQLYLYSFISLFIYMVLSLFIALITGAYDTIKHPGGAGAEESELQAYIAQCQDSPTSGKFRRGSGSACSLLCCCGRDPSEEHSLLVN
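Kinetic FDSS Ca2+ read in Tet-induced TRPML1-DL cells (ABD Ca8 dye plus quencher, 45-90 min RT loading): baseline, then compound, then 110 s agonist window; EC80 agonist 54-4 at 4uM final added afterwards for a 110 s antagonist window.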
CtBP-E1A inh = CtBP/E1A binding inhibition; activity change, % (test concentration not listed); 340,000 compounds, 0.49% hits; AID 651724; AlphaScreen GST-E1A/His-CtBP binding, 1536-well; stronger effect = lower value; control for the full effect not named in the record; in the data active means activity change below about -65%; inconclusive means about -30% to -65%; inactive means above about -30%; also: % is scaled to controls: 0 for no effect and ±100 for the full control effect
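Steps: dispense buffer (Tris pH 8.0, NaCl 300 mM, TCEP 1 mM, BSA, Tween 20); add 5X protein mix (GST-E1A, His-CtBP, 125 nM each); pin 23 nL compound; 2 h at 37 °C, dark; add 5X beads (50 ug/mL); 1 h; read.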
D2 PAM = human D2 receptor positive allosteric modulation; DiscoveRx D2 beta-arrestin cells, luminescence, 90 min; 100% = 57 uM dopamine signal; 360,000 compounds, 0.23% hits; potentiation, % (concentration not given with the values); active = potentiation of 50% or more; inconclusive = 30% to 50%; inactive = 30% or less;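 also: tested on top of an EC20 dose of dopamine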
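PathHunter D2 cells, attached overnight at 37 deg C, received compound in DMSO plus dopamine at EC20 (50 nM final) for 90 min at 37 deg C. Beta-arrestin recruitment was read as luminescence after 1 h with detection reagent at ambient temperature.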
Active calls of the source: *; & = joins results of further samples; [ ] = dose if it differs, or a comment.

`Cc1nc([N+](=O)[O-])c(Br)n1CC(=O)c1ccccc1` gave D2 agonist -0.6, Six1-Eya2 inh 8.4, PINK1 modulator 13.7%, TRPML1 ag 0.3, CtBP-E1A inh 4.4 and D2 PAM -3.0.
Screening Cc1ccc(Nc2nnc(SCC(=O)NC3CC3)s2)cc1 returned D2 agonist -3.6, Six1-Eya2 inh 0.6, PINK1 modulator -2.0%, TRPML1 ag 0.0, CtBP-E1A inh -9.4 and D2 PAM -3.6.
For COc1ccc(NC(=O)C2CCN(S(=O)(=O)c3ccc4[nH]c(=O)oc4c3)CC2)c(OC)c1 the results were D2 agonist -0.4, Six1-Eya2 inh -0.5, PINK1 modulator 0.8%, TRPML1 ag -0.3, CtBP-E1A inh -1.4 and D2 PAM -7.7.
`CCN1CCN(S(=O)(=O)c2ccc(Cl)c(C(=O)Nc3ccccc3N3CCCC3)c2)CC1` gave D2 agonist -1.0, Six1-Eya2 inh -11.7, PINK1 modulator -5.0%, TRPML1 ag 0.6, CtBP-E1A inh 0.0 and D2 PAM -30.4.
CC1CN(C(=O)c2ccccc2Nc2ccc(SC(F)F)cc2)CC(C)O1 (stereo not given) was read as D2 agonist 1.2, Six1-Eya2 inh 3.4, PINK1 modulator 3.6%, TRPML1 ag -0.5, CtBP-E1A inh 2.6 and D2 PAM -0.2.
COc1ccc(NS(=O)(=O)c2cccc(C(=O)O)c2)cc1S(=O)(=O)N1CCCCC1 was read as D2 agonist -3.7, Six1-Eya2 inh 9.8, PINK1 modulator 0.3%, TRPML1 ag -0.6 and D2 PAM -12.3.
Cc1ccc(CNC(=O)c2ccc(C#CC(C)(C)O)s2)cc1 was read as D2 agonist -1.9, Six1-Eya2 inh -0.3, PINK1 modulator 6.7%[38.3 µM], TRPML1 ag -0.8, CtBP-E1A inh 0.8 and D2 PAM -3.3.
For CN(c1ccccc1)S(=O)(=O)c1ccc(NC(=S)NC(=O)c2ccccc2)cc1 the results were D2 agonist 0.4, Six1-Eya2 inh -6.4, PINK1 modulator -2.9%, TRPML1 ag 0.5, CtBP-E1A inh -11.4 and D2 PAM -3.8.
`CCN1CCN(C(=O)CN(c2ccc(C)cc2)S(C)(=O)=O)CC1` gave D2 agonist -1.5, Six1-Eya2 inh -2.0, PINK1 modulator -0.1%, TRPML1 ag 0.6, CtBP-E1A inh -3.0 and D2 PAM -20.7.
`CSc1nc2ccccc2cc1/C=C(\C#N)c1cccc(C)c1` gave D2 agonist -0.9, Six1-Eya2 inh 14.2, PINK1 modulator 3.5%, TRPML1 ag 0.3, CtBP-E1A inh -1.1 and D2 PAM -4.1.
COc1ccccc1N1C(=O)CC(N(O)c2ccccc2)C1=O (stereo not given) was read as D2 agonist -2.2, Six1-Eya2 inh 3.2, PINK1 modulator -1.1%, TRPML1 ag 0.3, CtBP-E1A inh 4.6 and D2 PAM 6.3.
`C=CCN([C@@H](CC(C)C)C(=O)OC)S(=O)(=O)N(CC=C)[C@@H](CC(C)C)C(=O)OC` gave D2 agonist -2.3, Six1-Eya2 inh 16.7, PINK1 modulator 10.5%, TRPML1 ag 0.3&-0.4, CtBP-E1A inh -5.1 and D2 PAM -2.9.
`CC(C)CC(O)(c1ccccc1)C(CN1CCOCC1)c1ccccc1` (stereo not given) gave D2 agonist -0.7, Six1-Eya2 inh -0.3, PINK1 modulator inconclusive, TRPML1 ag 0.7, CtBP-E1A inh 13.2 and D2 PAM 4.7.
For CC1=CC(C)(C)N(C(=O)CSc2ncn[nH]2)c2ccc(C)cc21 the results were D2 agonist 3.1, Six1-Eya2 inh -1.0, PINK1 modulator -2.6%[38.3 µM], TRPML1 ag 0.5, CtBP-E1A inh 1.4 and D2 PAM 3.3.
For O=C1NCCN1c1ccc(CN2CCN(C3CCCCC3)C(CCO)C2)cc1 (stereo not given) the results were D2 agonist -3.7, Six1-Eya2 inh -8.6, PINK1 modulator 2.2%, TRPML1 ag 0.0, CtBP-E1A inh -2.4 and D2 PAM -39.1.
`C=CCc1ccc(O)c(-c2cc(CC=C)ccc2O)c1` gave D2 agonist 9.0, Six1-Eya2 inh -8.5, PINK1 modulator 1.1%, TRPML1 ag 0.7, CtBP-E1A inh 3.1 and D2 PAM 7.2.
Screening COc1ccc(C)cc1N(C(=O)c1ccc(C#N)cc1)C1=NC(C)(C)CS1 returned D2 agonist -4.8, Six1-Eya2 inh 1.4, PINK1 modulator 1.1%, TRPML1 ag -0.4, CtBP-E1A inh -6.8 and D2 PAM -13.0.
CC(=O)Nc1cccc(C(=O)OCC(=O)NC(=O)Cc2ccccc2)c1 was read as D2 agonist -0.7, Six1-Eya2 inh -0.1, PINK1 modulator -0.2%, TRPML1 ag -0.1, CtBP-E1A inh 6.4 and D2 PAM 25.0.
Screening O=C(NC1CCCc2ccccc21)C1CCN(S(=O)(=O)N2CCCCCC2)CC1 (stereo not given) returned D2 agonist -1.1, Six1-Eya2 inh 25.7, PINK1 modulator 19.8%[38.3 µM], TRPML1 ag 0.9, CtBP-E1A inh 0.0 and D2 PAM -0.5.
For O=P(O)(O)c1ccccc1OCCOCCOc1ccccc1P(=O)(O)O the results were D2 agonist 0.4, Six1-Eya2 inh 1.2, PINK1 modulator 3.8%[38.3 µM], TRPML1 ag 0.7, CtBP-E1A inh 9.9 and D2 PAM 0.6.
Screening Fc1ccccc1C1c2[nH]c3ccccc3c2CCN1Cc1ccoc1 (stereo not given) returned D2 agonist -4.2, Six1-Eya2 inh -11.1, PINK1 modulator 7.2%, TRPML1 ag 0.8, CtBP-E1A inh -3.2 and D2 PAM -5.2.
For CCc1cc2c(COC(=O)c3cccc(S(C)(=O)=O)c3)cc(=O)oc2cc1O the results were D2 agonist 5.1, Six1-Eya2 inh 8.0, PINK1 modulator 1.8%, TRPML1 ag 1.4, CtBP-E1A inh -3.0 and D2 PAM 5.0.
Cc1cccc(NC(=O)COC(=O)c2ccccc2SCC(=O)N2CCCC2)c1 was read as D2 agonist 0.4, Six1-Eya2 inh -3.1, PINK1 modulator -0.9%, TRPML1 ag 0.7, CtBP-E1A inh 1.4 and D2 PAM 5.1.
For CN(C)C(C)(C)C#CC(O)(c1ccccc1)c1ccccc1 the results were D2 agonist 1.0, Six1-Eya2 inh -6.1, PINK1 modulator -0.4%, TRPML1 ag 0.5, CtBP-E1A inh 8.4 and D2 PAM -7.9.
Cc1cc(C)n2c(SCC(=O)Nc3ccc(F)cc3F)nnc2n1 was read as D2 agonist -2.6, Six1-Eya2 inh 1.5, PINK1 modulator 1.3%, TRPML1 ag -0.7, CtBP-E1A inh 7.1 and D2 PAM -8.8.
Cc1cccc(C2NC(=O)c3ccccc3O2)c1 (stereo not given) was read as D2 agonist -1.2, Six1-Eya2 inh -4.8, PINK1 modulator 0.3%, TRPML1 ag 0.5, CtBP-E1A inh 3.6 and D2 PAM -4.3.
Cc1noc(C)c1S(=O)(=O)N1CCCC(C(=O)NCc2ccccn2)C1 (stereo not given) was read as D2 agonist 0.4, Six1-Eya2 inh 6.4, PINK1 modulator -0.6%, TRPML1 ag 1.3, CtBP-E1A inh -1.7 and D2 PAM -1.7.
For CC(C)C(C)NC(=O)CN1C(=O)NC(C)(c2ccc3ccccc3c2)C1=O (stereo not given) the results were D2 agonist -2.3, Six1-Eya2 inh 7.5, PINK1 modulator 3.3%, TRPML1 ag 1.3, CtBP-E1A inh 0.3 and D2 PAM -2.6.
Screening CS(=O)(=O)Nc1cccc(-c2ccc3nncn3c2)c1 returned D2 agonist -3.0, Six1-Eya2 inh -2.3, PINK1 modulator 0.0%, TRPML1 ag -0.2, CtBP-E1A inh -1.3 and D2 PAM -3.3.
Screening O=C(CNC(=O)c1ccc(Cl)cc1)OCC(=O)N1CCCC1 returned D2 agonist -6.8, Six1-Eya2 inh 5.5, PINK1 modulator -1.7%, TRPML1 ag -0.6, CtBP-E1A inh 9.3 and D2 PAM -1.8.
For FC(F)(F)c1cccc(NC(=S)Nc2ccc(Cl)cc2Cl)c1 the results were D2 agonist -0.6, Six1-Eya2 inh -1.3, PINK1 modulator inconclusive, TRPML1 ag -0.2, CtBP-E1A inh 5.1 and D2 PAM -14.6.
Screening CC1(OC(=O)C2CCCC2)C(=O)C=C2C=C(c3ccsc3)N(C(CO)CO)C=C2C1=O (stereo not given) returned D2 agonist 9.9, Six1-Eya2 inh -2.7, PINK1 modulator -0.3%, TRPML1 ag 0.0, CtBP-E1A inh -16.4 and D2 PAM 8.2.
Cc1onc(-c2c(Cl)cccc2Cl)c1C(=O)Nc1ccc(Cl)cn1 was read as D2 agonist -4.7, Six1-Eya2 inh 7.0, PINK1 modulator -0.2%, TRPML1 ag 2.0, CtBP-E1A inh -13.3 and D2 PAM -28.9.
For CSc1ccc(/C=C/C(=O)c2ccc(NC(C)=O)cc2)cc1 the results were D2 agonist -2.6, Six1-Eya2 inh 2.7, PINK1 modulator 0.8%, TRPML1 ag -0.3, CtBP-E1A inh -3.6 and D2 PAM -20.7.
`CCCCn1c(N)c(N(CCC(C)C)C(=O)CSc2nncn2-c2ccccc2)c(=O)[nH]c1=O` gave D2 agonist 3.3, Six1-Eya2 inh 2.5, PINK1 modulator 1.5%, TRPML1 ag -0.8, CtBP-E1A inh 2.6 and D2 PAM -2.6.
For O=C(COc1ccccc1Cl)Nc1ccc(NC(=O)c2ccco2)cc1 the results were D2 agonist 0.8, Six1-Eya2 inh -1.7, PINK1 modulator 13.7%, TRPML1 ag -1.2, CtBP-E1A inh 13.0 and D2 PAM -3.5.
Screening CC(NC(=O)C1=CC=CN2CCS(=O)(=O)N=C12)c1ccc(Cl)c(Cl)c1 (stereo not given) returned D2 agonist -1.7, Six1-Eya2 inh -8.8, PINK1 modulator -0.6%, TRPML1 ag 0.0, CtBP-E1A inh -1.0 and D2 PAM -5.1.
`COc1cccc(CNc2ccc([N+](=O)[O-])c(NCC(=O)O)n2)c1` gave D2 agonist -6.5, Six1-Eya2 inh -8.1, PINK1 modulator -0.9%, TRPML1 ag 1.2, CtBP-E1A inh 0.0 and D2 PAM -7.8.
For C[C@H](CO)N1C[C@H](C)[C@@H](CN(C)S(=O)(=O)c2ccc(-c3ccccc3)cc2)OCc2cn(nn2)CCCC1=O the results were D2 agonist -3.5, Six1-Eya2 inh -16.0, PINK1 modulator 0.8%, TRPML1 ag -0.4, CtBP-E1A inh 6.0 and D2 PAM 4.0.

By substructure: the compounds so far containing a nitro group on carbon
`Cc1nc([N+](=O)[O-])c(Br)n1CC(=O)c1ccccc1` gave D2 agonist -0.6, Six1-Eya2 inh 8.4, PINK1 modulator 13.7%, TRPML1 ag 0.3, CtBP-E1A inh 4.4 and D2 PAM -3.0.
`COc1cccc(CNc2ccc([N+](=O)[O-])c(NCC(=O)O)n2)c1` gave D2 agonist -6.5, Six1-Eya2 inh -8.1, PINK1 modulator -0.9%, TRPML1 ag 1.2, CtBP-E1A inh 0.0 and D2 PAM -7.8.
